# Source: PubChem BioAssay (several laboratories)
# LANA-H2A inh – blocks KSHV LANA binding to histone H2A/H2B; Q9QR71; cell-free LANA-H2A/H2B peptide, fluorescence polarization; inhibition, % (concentration not given with the values); 0.6% of 320,000 active; in the data active = inhibition mostly above about 10%, no sharp cut-off; inactive = mostly below about 6.7%;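 also: stock transfer was 7.5 nL into about 10 µL; 0% = median of vehicle wells and 100% = median of positive control wells; one replicate is shown; the record names a cut of 25% in any replicate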
# Beta2AR agonist – human beta-2 adrenergic receptor agonism by FAP; P07550; Am2.2-beta2AR cells, FAP receptor internalization, flow cytometry; reference of the scale not given here; response, % (concentration not given with the values); 0.43% of 340,000 active; AID 504454;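 active = response above a set limit, near 3 SD of response in nonfluorescent compounds, cut at about 42% in these data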;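 also: stock transfer was 100 nL into about 11 µL; a reference agonist was the positive control; negative values mostly stem from fluorescent compounds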
# Target sequence (P07550 whole entry, looked up): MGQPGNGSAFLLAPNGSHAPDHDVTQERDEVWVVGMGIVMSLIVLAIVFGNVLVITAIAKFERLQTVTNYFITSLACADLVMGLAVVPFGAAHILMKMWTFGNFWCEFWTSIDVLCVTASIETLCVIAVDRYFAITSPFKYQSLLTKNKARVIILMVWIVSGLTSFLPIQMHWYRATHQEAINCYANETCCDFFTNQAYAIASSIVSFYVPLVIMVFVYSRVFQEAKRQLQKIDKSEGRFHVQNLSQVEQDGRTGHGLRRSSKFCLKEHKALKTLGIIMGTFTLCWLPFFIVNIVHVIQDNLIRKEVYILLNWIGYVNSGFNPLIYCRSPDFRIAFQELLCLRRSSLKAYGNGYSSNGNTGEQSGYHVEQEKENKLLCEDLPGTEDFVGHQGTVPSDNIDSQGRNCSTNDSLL
# E coli growth – inhibitors of Escherichia coli growth; 0.21% of 330,000 active; OD600, 23 h; stronger effect = lower value; OD600 absorbance (test concentration not listed);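 active = OD600 absorbance below the run mean of sample wells minus 3.6 SD, in any replicate, cut at about 0.56 in these data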;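 also: stock transfer was 300 nL into about 60 µL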
# HNF4A DNA FP – change in binding of human HNF4 alpha to DNA | HNF4a-FITC DNA binding, fluorescence polarization, 1 h | AID 1224865 | 0.3% of 360,000 active | activity change, % at 10 µM; in the data active = activity change above about 30%, passing the limit was not always enough;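 also: controls were the assay level and a saturating level of protein; the project sought stronger binding though the title names inhibitors; some compounds called inactive have numbers as strong as hits; positive values seem to mean higher polarization but the record does not say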
# Bfl-1 A1 inh – inhibitors of the anti-apoptotic protein A1, read as caspase activation; 0.066% of 330,000 active; MEF A1-2A-BIM cells, Caspase-Glo 3/7 luminescence, 3 h; percent of clofoctol response, vehicle zero; AID 2462; caspase activation, % (test concentration not listed);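 active = over half of replicate activation scores above 10%, or exactly half above 10 with the replicate mean above 10; inconclusive = replicate mean below 10 yet half the replicates above 10; inactive = over half of replicates below 10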;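 also: wells of about 30 µL received 50 nL stock; many hits fall short of the cut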
# UCH37 DUB inh – blocks the human deubiquitinase UCH37. Q9Y5K5. purified proteasome/UCH37, Ub-AMC cleavage fluorescence. inhibition, % (test concentration not listed). 0.33% of 330,000 active. AID 588478;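 active = mean of two replicates above 20%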;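 also: 0% = compound-free wells with enzyme and 100% = wells lacking proteasome; stock transfer was 100 nL into about 20 µL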
# Target sequence (Q9Y5K5 whole entry, looked up): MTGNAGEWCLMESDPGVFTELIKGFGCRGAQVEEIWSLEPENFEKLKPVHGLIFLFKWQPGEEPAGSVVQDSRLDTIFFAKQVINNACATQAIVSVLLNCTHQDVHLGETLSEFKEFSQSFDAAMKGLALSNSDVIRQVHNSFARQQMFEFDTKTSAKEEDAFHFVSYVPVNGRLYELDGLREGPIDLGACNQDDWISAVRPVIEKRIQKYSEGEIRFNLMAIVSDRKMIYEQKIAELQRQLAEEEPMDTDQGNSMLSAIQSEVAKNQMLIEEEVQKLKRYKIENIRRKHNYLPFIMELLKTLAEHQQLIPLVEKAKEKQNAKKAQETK
#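 Assay system: Proteasome-bound UCH37. Buffer or medium: pH 7.4 Tris-HCl (50 mM) with ovalbumin, ATP-MgCl2, DTT. Incubation: 30 min preincubation with enzyme, 25 min cleavage at room temperature. Measured by: fluorescence, ex 355 nm, em 460 nm. Read-out basis: percent inhibition. Control set: wells without proteasome as full block, compound-free enzyme plus substrate as uninhibited.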
# Vif A3G – HIV-1 Vif–A3G interaction blockers – biochemical, TR-FRET, GST-Vif 1-94, biotin-A3G peptide, dose response retest, primary screen (AID 1117319) | TR-FRET GST-Vif / biotin-A3G peptide binding; higher % means a stronger effect; test concentration not given here; strong numbers were not always called active | one-dose inhibition, %; IC50 in µM for titrated hits | 0.57% of 260,000 active;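 active = above the screen mean plus three standard deviations and confirmed in dose response; inconclusive = results disagree or hit not tested in dose response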;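 also: Vif residues 1-94 fused to GST binding biotinylated APOBEC3G peptide 110-148; 0% = full assay without inhibitor and 100% = GST in place of GST-Vif; retest series ran down from 100 µM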
# * marks the source's active call; other numbers are inactive results; u = inconclusive; x = no result given; & = joins results of further samples.
SMILES,LANA-H2A inh,Beta2AR agonist,E coli growth,HNF4A DNA FP,Bfl-1 A1 inh,UCH37 DUB inh,Vif A3G
Cc1ccc(S(=O)(=O)Nc2nnc(C3CCCCC3)s2)cc1,2.8,2,0.69,1.5,0.5,0.7,x
CCOC(=O)c1c(NC(=O)Cc2ccccc2)sc2c1CCN(CC)C2,-9.3,-13,0.76,2.8,x,1.8,x
Nn1c(SCC(=O)Nc2ccc3c(c2)OCCO3)nncc1=O,13*,7,0.69,-1.4,-0.6,4.5,x
C=CCOC(=O)C1=C[C@H](c2ccc3c(c2)OCO3)C[C@H](OCCCCO)O1,2.1,-2,x,1.6,1.4,2.3,x
N#Cc1nc(-c2ccc(F)cc2)oc1N1CCC(C(N)=O)CC1,8.3,-5,0.6,-4.7,0.4,-207,6%
COc1ccc(CCNC(=O)Cn2nnc(-c3ccc(N(C)C)cc3)n2)cc1OC,-1.5,-5,0.7,1.0,-0.1,-1.6,-5%
CCOC(=O)N1CCN(C(=O)COC(=O)CSc2ccc([N+](=O)[O-])cc2)CC1,-4.1,-8,0.64,1.6,-0.6,10,-2%
O=C(CN1CCN(S(=O)(=O)c2ccc(Cl)s2)CC1)N1CCOCC1,0.7,3,0.7,4.6,0.7,1.6,7%
CNC(=S)N(CCc1c(C)[nH]c2ccc(C)cc12)Cc1cccnc1,2.8,-3,0.73,1.8,0.2,5.7,x
C#CCN1C(=O)C(O)(c2c(C)[nH]c3ccccc23)c2ccccc21 (stereo not drawn),-3.5,-91,x,-5.4,-0.2,x,-6%
CCN(CC)CCCNC(=S)N1CCN(c2nc(-c3ccc(F)cc3)cs2)CC1,-7.9,9,0.61,-0.2,0.1,5.5,-1%
Cc1nc2c(Cl)cccc2[nH]1,1.4,0,0.75,-0.7,-0.6,0.0,-1%

# Looked up by compound from above:
SMILES,LANA-H2A inh,Beta2AR agonist,E coli growth,HNF4A DNA FP,Bfl-1 A1 inh,UCH37 DUB inh,Vif A3G
COc1ccc(CCNC(=O)Cn2nnc(-c3ccc(N(C)C)cc3)n2)cc1OC,-1.5,-5,0.7,1.0,-0.1,-1.6,-5%
CNC(=S)N(CCc1c(C)[nH]c2ccc(C)cc12)Cc1cccnc1,2.8,-3,0.73,1.8,0.2,5.7,x

# Following part.
SMILES,LANA-H2A inh,Beta2AR agonist,E coli growth,HNF4A DNA FP,Bfl-1 A1 inh,UCH37 DUB inh,Vif A3G
Cc1[nH]c2ccccc2c1/C=N/Nc1nc(N2CCCCC2)nc(N2CCCCC2)n1,4.0,13,x,-1.9,-0.1,x,-1%
O=C(Nc1cccnc1)Nc1cccc([N+](=O)[O-])c1,5.2,8,0.54,3.1,-0.4,1.4,x
COc1ccc(C(=O)COC(=O)c2ccc([N+](=O)[O-])s2)cc1OC,0.9,-4,0.67,-0.8,-1.3,4.8,x
Cc1cn(-c2cc(NC(=O)c3ccc(C)c(NC(=O)c4cccc(-c5cn[nH]c(=O)c5)c4)c3)cc(C(F)(F)F)c2)cn1,1.9,78*,0.73,25,0.5,1.0,x
COc1ccc(/C(C)=N/NC(=O)C2C3CCCCC32)c(OC)c1 (stereo not drawn),-2.6,-5,x,1.2,-0.7,x,0%
CSCC[C@H](NC(=O)OC(C)(C)C)C(=O)N/N=C/c1c(C)[nH]c(=O)[nH]c1=O,-1.0,-1,x,1.8,0.2,x,30%
Cc1[nH]c(C)c(S(=O)(=O)N(Cc2ccccc2)C(C)C)c1C(=O)N1CCCC1,0.8,-6,0.66,-7.3,0.0,4.4,x
O=S(=O)(c1ccc(Br)c2ccccc12)N1CCOCC1,-3.8,-4,0.61,2.0,-0.3,2.2,-9%
COc1cccc(CN2CCN(Cc3ccc(O)c(OC)c3)CC2CCO)c1 (stereo not drawn),-4.2,3,0.66,4.2,0.5,3.4,-4%
CCOC(=O)c1cc(NC(=O)c2ccc(Cl)cc2)c(=O)oc1-c1ccccc1,1.5,6,0.74,-0.8,0.2,5.6,-6%
CCOc1ccc(C(=O)Nc2c3c(nn2-c2ccccc2)CS(=O)(=O)C3)cc1,0.8,-3,0.72,0.6,-0.5,-3.0,x
COc1cccc(C(C(=O)NCc2ccco2)N(Cc2ccco2)C(=O)Cn2nnc3ccccc32)c1 (stereo not drawn),-2.8,2,0.69,3.2,-0.4,2.0,1%
CC(C)(C)OC(=O)NCc1ccc(CNC(=O)c2[nH]cnc2C(=O)NC2CCN(C(=O)OC(C)(C)C)CC2)cc1,-2.1,4,0.66,-1.6,-0.4,39*,x
CCCNC(=O)CNC(=O)c1ccc(C#N)cc1,x,3,0.73,-0.9,x,-0.6,x
Cc1ccc2c(Cl)cc(Cl)c(OCC(=O)NC3CCS(=O)(=O)C3)c2n1 (stereo not drawn),-0.9,-2,0.66,1.4,0.5,-7.3,-6%
Brc1ccc(-c2nnc(-c3ccccc3)c(N3CCSCC3)n2)cc1,1.6,2,0.71,-3.6,-1.9,1.9,4%
C=CCN1CCc2nc(N)sc2CC1,x,1,0.71,-0.9,x,2.5,u
Cc1cccnc1NC(=O)c1ccc(OCc2c(C)noc2C)cc1,2.3,2,0.64,0.0,0.5,2.1,-6%
c1ccc(CSc2nnc3ccc(-c4cccs4)nn23)nc1,-5.8,2,0.72,-0.6,0.3,-4.7,-15%
CCCOc1ccc2oc(=O)c3c(c2c1)CCCN3C(=O)CN1CCCC(C(=O)OCC)C1 (stereo not drawn),x,-11,0.74,3.6,0.1,-10,-10%&-13%
CCCCC(=O)c1ccc(O)cc1,3.6,5,0.69,3.0,-0.7,-0.3,5%
COC(=O)c1ccc(N=CC2=C(O)CC(c3ccccc3)CC2=O)cc1 (stereo not drawn),1.7,-6,0.7,8.2,-0.8,-124,x
COc1ccccc1-c1cc(C(=O)NCc2ccccc2)no1,-1.9,-8,0.65,3.0,0.6,-0.5,3%
Cc1cc(C)nc(NNC2=CC(=O)CC(C)(C)C2)n1,1.9,1,0.7,3.7,-0.2,1.9,-3%
O=C(COc1ccccc1N1C(=O)c2ccccc2C1=O)c1ccc(Cl)cc1,-1.2,-53,0.69,1.1,0.4,0.2,12%
CN(C)CCCN(C(=O)c1ccc(S(=O)(=O)N(C)Cc2ccccc2)cc1)c1nc2cc3c(cc2s1)OCO3,-1.0,32,0.69,0.9,-0.2,2.6,-6%
COc1ccccc1NC(=S)N(CCc1c(C)[nH]c2ccccc12)Cc1cccs1,-9.3,7,0.74,9.5,0.0,2.1,-1%
COc1ccccc1N1CCN(C(=O)CN(Cc2ccc(Cl)cc2)S(C)(=O)=O)CC1,3.8,11,0.64,-1.2,1.4,2.2,u
O=C(CCc1ccccc1)NC(=S)Nc1ccc2c(c1)C(=O)OC2,2.3,-7,0.7,-3.4,-0.4,0.8,x
OC(CSc1c(Cl)cccc1Cl)CN1CCN(c2ccc(F)cc2)CC1 (stereo not drawn),3.7,6,0.62,-2.0,-1.6,1.4,11%
Cn1c(=O)c2sccc2n2c(CCCC(=O)N3CCCCC3)nnc12,2.5,-1,0.73,-1.1,1.2,1.1,x
Cn1nnnc1P(=O)(c1ccccc1)c1ccccc1,-4.1,-4,0.66,-2.8,-0.6,4.6,-1%
O=C(CSc1cccc[n+]1[O-])Nc1ccccc1C(F)(F)F,-2.7,1,0.6,2.9,-0.2,0.2,5%
C/C(=N/NC(=O)c1ccncc1)c1ccccc1,0.8,-6,x,1.6,-2.6,x,x
Cc1ccc(CNS(=O)(=O)c2ccc3c(c2)NC(=O)C(C)S3)cc1 (stereo not drawn),5.4,3,0.69,-1.5,1.0,3.0,x
O=C(CN1C2CCCC1CC(NC(=O)c1ccccc1)C2)Nc1ccccc1C(F)(F)F (stereo not drawn),3.6,-14,0.65,-1.8,0.1,1.3,-2%
CCOC(=O)c1c(C)nn(-c2ccc(NC(=O)c3c(C)noc3C)cc2)c1C,1.1,-7,0.68,-4.2,0.4,2.8,-5%
O=C(Nc1cccnc1)c1ccc(-c2ccc(Cl)cc2)o1,0.4,-1,0.67,2.7,-2.0,-5.8,-3%
CCCCN(c1ccccc1)S(=O)(=O)c1cccc2cccnc12,-2.0,3,0.69,1.6,1.6,4.9,-2%
Cc1cccc(Nc2nc(N)c([N+](=O)[O-])c(N3CC(C)CC(C)C3)n2)c1 (stereo not drawn),2.1,4,0.67,-1.0,0.6,5.2,-12%
CCOc1ccccc1C(=O)NC(C(=O)Nc1ccccc1N1CCOCC1)C(C)C (stereo not drawn),1.9,-28,0.73,-2.8,1.3,2.3,7%
CC(C)(C)[C@H]1C=C(C(=O)NCc2nc3ccccc3[nH]2)O[C@@H](OCCCCO)C1,-2.3,-6,x,0.8,2.6,1.0,8%
O=C(c1ccc(F)cc1)N1CCC(C(=O)N2CCN(Cc3ccc4c(c3)OCO4)CC2)CC1,-4.7,-4,0.62,-0.1,-0.2,0.4,25%
O=C(Nc1ccc2c(c1)Cc1ccccc1-2)c1cccnc1,1.2,5,0.64,-1.7,-1.1,0.0,x
O=C(NC1CC1)c1ccc(CSCc2ccccc2Cl)o1,1.5,-5,0.7,-0.5,0.1,-1.7,x
O=C(Cc1ccccc1)Nc1nnc(-c2cccs2)s1,-0.3,-4,0.75,8.6,-0.3,-68,-17%
COC(=O)c1cc(NC(=O)c2cc(C(C)(C)C)nn2Cc2ccc(F)cc2)ccc1N1CCOCC1,5.0,9,0.7,-0.5,0.3,-8.0,x
COc1ccccc1N1CCN(C(=O)c2cc3c(=O)n4ccccc4nc3s2)CC1,-12,-5,0.69,3.5,-1.9,-57,-13%
COc1cc(OC)cc(-c2oc(=O)c3cc(OC)c(OC)cc3c2C#CCCO)c1,-1.4,0,0.68,-0.3,-0.6,-47,x
CCOC(=O)c1sc(NC(=O)CSc2nnc(Cc3ccccc3)o2)c(C#N)c1C,0.7,9,0.76,4.3,0.0,3.6,6%
Cc1ccccc1N(C(=O)c1ccccn1)C(C(=O)NCc1ccccc1)c1cccnc1 (stereo not drawn),-4.0,0,0.67,4.0,-0.2,3.9,-6%
Cc1ccc(CCN2C(=O)CCC2(C)C(=O)NC2CCCC2)cc1 (stereo not drawn),-1.8,7,0.73,0.1,-0.1,3.9,-6%
CCOC(=O)NC(=O)COC(=O)c1cccc2ccccc12,2.6,2,0.65,0.4,0.0,-20,8%
O=C(CSc1nnc(NC(=O)c2ccco2)s1)Nc1ccccc1Br,-4.5,-3,0.7,0.0,-0.3,-0.4,u
CCOc1ccc(OCC)c(NC(=O)CCS(=O)(=O)c2ccc(C)cc2)c1,0.9,-1,0.67,1.4,0.2,1.9,1%
COc1ccc2[nH]cc(CC(=O)O)c2c1,-2.5,-5,0.68,1.2,0.1,3.5,2%
CC(/C=C/C1(O)C(C)CC(O)CC1(C)C)OC1OC(CO)C(O)C(O)C1O (stereo not drawn),6.9,2,0.76,-1.9,1.6,3.3,x
CC1CCCN(c2cc3c(cc2[N+](=O)[O-])C(=O)N(c2ccccc2)C3=O)C1 (stereo not drawn),0.3,0,0.74,5.7,0.3,2.1,x
O=C(NC(N1CCOCC1)C(Cl)(Cl)Cl)c1ccc(Br)cc1 (stereo not drawn),7.2,-1,0.69,-1.8,-0.6,5.9,-2%
Cc1ccc(C(=O)N2CC=C(c3ccccc3)CC2)o1,0.9,5,0.67,-2.5,0.1,5.9,1%
COc1ccc(C2CC(=O)Oc3cc(C)c(Cl)cc32)cc1 (stereo not drawn),x,4,0.68,-1.9,x,-1.2,10%
O=C(CSc1nnc2c(n1)[nH]c1ccccc12)NC1CCCCC1,7.6,-9,0.71,-6.9,0.9,2.9,x
